# From PubChem BioAssay
# Env fusion inh – inhibitors of HIV-1 Env-driven cell-cell fusion, primary screen, HeLa-JRFL effector, CEM21 target cells, luciferase. inhibition, % at 12.3 µM. actives 1.1% (n = 360,000). AID 651610, 2012;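 active means mean replicate inhibition score of at least 50 and every replicate individually at or above 50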;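 further: 0% = plate neutral controls and 100% = maraviroc near 300 nM; one replicate is shown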
# * marks the source's active call; other numbers are inactive results; [ ] = remark or other dose. An excerpt, so the mix of outcomes need not match the whole.
SMILES,Env fusion inh
COc1ccc(-c2cc(NC(=O)Cc3c[nH]c4ccccc34)ccc2N(C)c2cccnc2)cc1F,-6
CN1CCN(C(=O)C[C@@H]2CC[C@H]3[C@@H](COc4ccc(NC(=O)c5cscn5)cc4C(=O)N3C)O2)CC1,15[16.7 µM]
O=C(NCCc1ccncc1)[C@@H]1[C@@H](CO)[C@@H]2Cn3c(ccc(-c4ccccc4)c3=O)[C@@H]2N1C(=O)C1CC1,-2[16.7 µM]
COc1cccc(NC(=O)N(C)C[C@H]2Oc3ncc(/C=C/c4ccccc4)cc3C(=O)N([C@H](C)CO)C[C@H]2C)c1,-11[16.7 µM]
COC(=O)C1=C(C)N(Cc2ccccc2C(F)(F)F)C(=NCc2ccc(C(F)(F)F)cc2)NC1c1cccc(Cl)c1 (stereo unspecified),22
C[C@H](CO)N1C[C@H](C)[C@H](CN(C)S(=O)(=O)c2ccc(Cl)cc2)Oc2c(NC(=O)CCCCCC(=O)Nc3ccccc3N)cccc2C1=O,5[16.7 µM]
C[C@@H]1CN([C@@H](C)CO)C(=O)c2ccccc2-c2ccccc2CO[C@@H]1CN(C)Cc1cccc(O)c1,-5[16.7 µM]
CCNC(=O)N1CCN(c2ccc(N3CCN(Cc4ccccc4)[C@@H](C)C3)c(C)c2)[C@@H](C)C1,-11
CO[C@H]1CN(C)C(=O)c2ccc(NC(C)=O)cc2OC[C@@H](C)N(Cc2cncnc2)C[C@@H]1C,-1[16.7 µM]
CCCC(=O)OC[C@H]1CN(C2CCCC2)S(=O)(=O)c2c(Oc3ccccc3)cccc2O1,14
C[C@H]1CN([C@@H](C)CO)C(=O)c2c(c3ccccc3n2C)-c2ccccc2CO[C@H]1CN(C)C(=O)[C@H](Cc1ccccc1)N(C)C,19[16.7 µM]
C[C@H]1CN([C@@H](C)CO)C(=O)c2cc(NC(=O)Cc3cn(C)c4ccccc34)ccc2O[C@H]1CN(C)Cc1ccc(-c2ccccc2)cc1,15[16.7 µM]
COC(=O)C1=C(C)N(C)C(=NCc2ccccc2)NC1c1cccc(Cl)c1 (stereo unspecified),10
O=C(NCc1cc(C(F)(F)F)ccc1Cl)c1cccc2c1C(=O)c1ccc(Cl)cc1S2(=O)=O,-4
COCC(=O)N1C[C@H](C)[C@@H](OC)CN(C)C(=O)c2ccc(NS(C)(=O)=O)cc2OC[C@@H]1C,10[16.7 µM]
CN1CCN(C(=O)C[C@H]2C[C@@H]3c4cc(NC(=O)C5CCC5)ccc4O[C@@H]3[C@@H](CO)O2)CC1,0[16.7 µM]
O=C1N[C@@H](c2ccccc2)COCc2cn(nn2)CC[C@H]1Cc1ccc(Cl)cc1,-3[16.7 µM]
CN1CCCCC(NC(=O)c2cccc(C(F)(F)F)c2)C1=O (stereo unspecified),-16
C[C@H](CO)N1C[C@H](C)[C@@H](CN(C)Cc2ccc(C(=O)O)cc2)Oc2c(NC(=O)Nc3cccc4ccccc34)cccc2C1=O,10[16.7 µM]
COC(=O)[C@]12C[C@H](CC(=O)NCCC(C)C)C(=O)N(CCC3=CCCCC3)C1=C[C@H](COCc1ccccc1)O[C@@H]2C,-15
CCCC#C/C(CCC)=C1\c2ccccc2C(=O)N1c1ccccc1,-30
CN(C)C(=O)C[C@@H]1CC[C@H]2[C@@H](COC[C@@H](O)CN2C(=O)c2ccncc2)O1,3[16.7 µM]
CCCC(=O)Nc1ccc2c(c1)C(=O)N(C)C[C@H](OC)[C@H](C)CN(CCC(F)(F)F)[C@H](C)CO2,1[16.7 µM]
CNC[C@H]1OCCCC[C@H](C)Oc2ccc(NS(=O)(=O)c3cccs3)cc2C(=O)N([C@@H](C)CO)C[C@H]1C,10[16.7 µM]
COc1cccc(S(=O)(=O)N2CC3(CN[C@@H](CO)c4[nH]c5cc(OC)ccc5c43)C2)c1,-17[16.7 µM]
C[C@@H]1CCCCO[C@H](CN(C)Cc2ccncc2)[C@H](C)CN([C@H](C)CO)C(=O)c2cc(NC(=O)c3ccncc3)ccc2O1,-7[16.7 µM]
CO[C@@H]1CN(C)C(=O)c2cc(NC(=O)c3ccccc3)ccc2OC[C@H](C)N(CC2CC2)C[C@@H]1C,-2[16.7 µM]
COc1cccc(NC(=O)C[C@@H]2CC[C@@H]3[C@H](COc4ccc(NC(=O)C5CCOCC5)cc4C(=O)N3C)O2)c1,-5[16.7 µM]
COC(=O)c1ccc(N)c2c(N)ccc(C(=O)OC)c12,10
CC(C)[C@@H](CO)NC(=O)[C@H]1[C@@H](c2ccccc2)N(c2ccccc2)O[C@@H]1C,9[16.7 µM]

# Copied from the list:
# `C[C@@H]1CCCCO[C@H](CN(C)Cc2ccncc2)[C@H](C)CN([C@H](C)CO)C(=O)c2cc(NC(=O)c3ccncc3)ccc2O1` @ Env fusion inh: -7[16.7 µM]
# `CC(C)[C@@H](CO)NC(=O)[C@H]1[C@@H](c2ccccc2)N(c2ccccc2)O[C@@H]1C` @ Env fusion inh: 9[16.7 µM]
# `COc1cccc(S(=O)(=O)N2CC3(CN[C@@H](CO)c4[nH]c5cc(OC)ccc5c43)C2)c1` @ Env fusion inh: -17[16.7 µM]

# More records follow.
SMILES,Env fusion inh
C[C@H]1CCCCO[C@@H](CN(C)S(=O)(=O)c2cccs2)[C@@H](C)CN([C@@H](C)CO)C(=O)c2cc(N(C)C)ccc2O1,-15[16.7 µM]
COC(=O)[C@]12C[C@H](CC(=O)N3CCN(C(=O)c4ccco4)CC3)C(=O)N(Cc3ccccc3)C1=C[C@H](C(C)C)O[C@@H]2C1CC1,-62
COc1cccc(CN2CC3(CN(CC4CC4)C3)c3c([nH]c4cc(OC)ccc34)[C@@H]2CO)c1,-12[16.7 µM]
COc1ccccc1NC(=O)OC[C@@H]1CSCCS(=O)(=O)N1,-14
C#CCNC(=O)C[C@H]1C[C@@]2(C(=O)OC)C(=C[C@H](C(C)(C)C)O[C@@H]2C)N(Cc2ccc3c(c2)OCO3)C1=O,-15
CC(C)NC(=O)Nc1ccc2c(c1)C(=O)N([C@@H](C)CO)C[C@@H](C)[C@@H](CN(C)C(=O)Nc1cccc3ccccc13)O2,4[16.7 µM]
COC(=O)[C@]12C[C@H](CC(=O)N3CCCC3)C(=O)N(Cc3ccccc3)C1=C[C@H](C1CCCC1)O[C@@H]2C,-20
COc1cccc(CNC(=O)C[C@H]2CC[C@@H]3[C@@H](COc4ccc(NS(=O)(=O)c5ccccc5F)cc4C(=O)N3C)O2)c1,-17[16.7 µM]
COc1ccccc1NC(=O)N[C@H]1CC[C@H](CCNS(=O)(=O)c2ccccc2)O[C@@H]1CO,-19[16.7 µM]
CC(C)=CCN1C(=O)[C@]2(OCCC=C[C@H]2C)c2c(Br)cccc21,25
O=C1CCCn2cc(nn2)COC[C@@H](Cc2ccccc2)N1,6[16.7 µM]
C#CCNC(=O)C[C@H]1C[C@@]2(C(=O)OC)C(=C[C@H](C3CCCC3)O[C@@H]2C)N(Cc2ccccc2)C1=O,-23
CCOC(=O)C1=C(C(=O)OCC)C2N(Cc3ccc(C#N)cc3)c3ccccc3[C@@]23C[C@@H](C(=O)OC)N(S(=O)(=O)c2ccc(C#N)cc2)C3=N1 (stereo partly specified),5
O=C(C[C@H]1C[C@@H]2c3cc(NC(=O)C4CCOCC4)ccc3O[C@@H]2[C@@H](CO)O1)NCc1ccc(Oc2ccccc2)cc1,-15[16.7 µM]
COc1ccc(-c2ccc3c(n2)CCCN3S(=O)(=O)c2ccc(C(F)(F)F)cc2)cc1,-7
C[C@H](CO)N1C[C@H](C)[C@@H](CN(C)C)OCCCC[C@H](C)Oc2ccc(NS(C)(=O)=O)cc2C1=O,-6[16.7 µM]
CCCC(=O)Nc1ccc2c(c1)C(=O)N(C)C[C@@H](OC)[C@H](C)CN(CC1CCCC1)[C@@H](C)CO2,-14[16.7 µM]
CC(C)NC(=O)N(C)C[C@@H]1OCCCC[C@H](C)Oc2ccc(NC(=O)CCC(F)(F)F)cc2C(=O)N([C@H](C)CO)C[C@H]1C,-2[16.7 µM]
CO[C@@H]1CC[C@H]2CCOc3ccc(C#N)cc3C(=O)N(C)C[C@@H](c3ccccc3)CC(=O)N(C)C[C@@H]1O2,9[16.7 µM]
COC(=O)c1cc2c(c3c4cc(F)ccc4n(S(=O)(=O)c4ccccc4)c13)C(=O)N(Cc1ccc(C(F)(F)F)cc1)C2,19

# Looked up one by one from above (four):
SMILES,Env fusion inh
C[C@H](CO)N1C[C@H](C)[C@@H](CN(C)C)OCCCC[C@H](C)Oc2ccc(NS(C)(=O)=O)cc2C1=O,-6[16.7 µM]
CCCC(=O)Nc1ccc2c(c1)C(=O)N(C)C[C@@H](OC)[C@H](C)CN(CC1CCCC1)[C@@H](C)CO2,-14[16.7 µM]
C#CCNC(=O)C[C@H]1C[C@@]2(C(=O)OC)C(=C[C@H](C3CCCC3)O[C@@H]2C)N(Cc2ccccc2)C1=O,-23
CC(C)NC(=O)N(C)C[C@@H]1OCCCC[C@H](C)Oc2ccc(NC(=O)CCC(F)(F)F)cc2C(=O)N([C@H](C)CO)C[C@H]1C,-2[16.7 µM]

# Following part.
SMILES,Env fusion inh
Cc1noc(C)c1S(=O)(=O)Nc1ccc2c(c1)C(=O)N([C@H](C)CO)C[C@@H](C)[C@@H](CN(C)C(=O)Nc1ccc(F)cc1)O2,-7[16.7 µM]
C[C@H]1CN([C@@H](C)CO)C(=O)c2cc(NC(=O)CCC(F)(F)F)ccc2O[C@@H]1CN(C)Cc1ccc2c(c1)OCO2,1[16.7 µM]
O=C(NCC[C@H]1CC[C@H](NC(=O)Nc2cc(F)ccc2F)[C@@H](CO)O1)Nc1ccc(Cl)cc1,7[16.7 µM]
O=C(C[C@H]1CC[C@@H]2[C@H](COC[C@H](O)CN2C(=O)Nc2cccc(Cl)c2)O1)N1CCCCC1,17[16.7 µM]
CC(C)CC1NC(=O)c2cc(Cl)ccc2-n2c1nc1cc(F)ccc1c2=O (stereo unspecified),-15
C[C@@H](O)C#Cc1cnc2c(c1)C(=O)N([C@@H](C)CO)C[C@H](C)[C@@H](CN(C)CC1CCOCC1)O2,-9[16.7 µM]
CO[C@@H]1CC[C@H]2CCN(C)C(=O)[C@H](C)N(C)C(=O)c3cccc(C#N)c3OC[C@@H]1O2,13[16.7 µM]
C[C@H](CO)N1C[C@H](C)[C@H](CN(C)C(=O)C2CC2)Oc2ncc(/C=C/c3ccccc3)cc2C1=O,18[16.7 µM]
Cc1ccccc1C(=O)N[C@@H](CC(C)C)C(=O)N1CCC[C@H]1C(=O)NCc1ccccc1,-47
C[C@H](CO)N1C[C@H](C)[C@H](CN(C)Cc2ccncc2)OCCCC[C@H](C)Oc2ccc(NC(=O)Nc3ccccc3)cc2C1=O,27[16.7 µM]

# Next part, starting with the last 3 of the part before.
SMILES,Env fusion inh
C[C@H](CO)N1C[C@H](C)[C@H](CN(C)C(=O)C2CC2)Oc2ncc(/C=C/c3ccccc3)cc2C1=O,18[16.7 µM]
Cc1ccccc1C(=O)N[C@@H](CC(C)C)C(=O)N1CCC[C@H]1C(=O)NCc1ccccc1,-47
C[C@H](CO)N1C[C@H](C)[C@H](CN(C)Cc2ccncc2)OCCCC[C@H](C)Oc2ccc(NC(=O)Nc3ccccc3)cc2C1=O,27[16.7 µM]
COc1ccccc1C#Cc1cnc2c(c1)C(=O)N([C@@H](C)CO)C[C@H](C)[C@H](CN(C)C(=O)c1ccc3c(c1)OCO3)O2,-4[16.7 µM]
CCN1C[C@@H]2[C@@H]3C(=O)N(Cc4ccccc4)C(=O)[C@@H]3[C@](CC)(C1=O)N2C(=O)c1ccc(Cl)cc1,2
C[C@@H]1CN([C@H](C)CO)S(=O)(=O)c2ccc(C3=CCCC3)cc2O[C@H]1CN(C)C(=O)c1cnccn1,12[16.7 µM]
Nc1cc2ccccc2cc1NS(=O)(=O)N1CCCCC1,11
O=C(C[C@H]1C[C@H]2c3cc(NC(=O)c4cccnc4)ccc3O[C@H]2[C@H](CO)O1)NCc1cc(F)ccc1F,10[16.7 µM]
CO[C@@H]1CN(C)C(=O)c2ccc(NC(=O)NC(C)C)cc2OC[C@@H](C)N(C)C[C@@H]1C,-17[16.7 µM]
CC(C)NC(=O)N[C@H]1CC[C@@H](CCN)O[C@H]1CO,-3[16.7 µM]
O=C(Nc1cccc(F)c1)N[C@@H]1CC[C@@H](CCNS(=O)(=O)c2cccc(Cl)c2)O[C@H]1CO,10[16.7 µM]
CCCC(=O)Nc1ccc2c(c1)OC[C@H](C)N(C(=O)CN(C)C)C[C@@H](C)[C@H](OC)CN(C)C2=O,58*[16.7 µM]
Cc1cc(Nc2cccc(Br)c2)cc(=O)n1-c1cccc(Br)c1,44
CO[C@@H]1CN(C)C(=O)c2cc(NC(=O)Cc3ccccc3)ccc2OC[C@H](C)N(C(C)=O)C[C@@H]1C,11[16.7 µM]
CC(C)(C)S(=O)(=O)N1C[C@@H]2CC(=O)C(CCO)=C2[C@H]1CCO,13
O=C(N[C@H]1CC[C@H](CCn2cc(Cc3ccccc3)nn2)O[C@H]1CO)c1cnccn1,-3[16.7 µM]
O=C(N[C@H](C(=O)N1CCC[C@H]1C(=O)NC1CCCC1)c1ccccc1)c1ccccc1,18
CC(C)NC(=O)Nc1cccc2c1O[C@H](CN(C)Cc1ccc(Cl)c(Cl)c1)[C@H](C)CN([C@H](C)CO)C2=O,-39[16.7 µM]
O=C([C@@H]1[C@@H](CO)[C@@H]2Cn3c(cccc3=O)[C@H]1N2S(=O)(=O)c1ccccc1F)N1CCOCC1,7[16.7 µM]
C=C1C(=O)OC2/C=C(/C)CC/C=C(/C)CCC12 (stereo unspecified),-18[16.7 µM]
C[C@@H]1CN(C(=O)OC(C)(C)C)CCN1c1ccc(N2CCN(Cc3ccccc3)[C@@H](C)C2)c(C#N)c1,43
CCCC(=O)Nc1ccc2c(c1)C(=O)N(C)C[C@H](OC)[C@@H](C)CN(C(=O)CC1CC1)[C@H](C)CO2,-7[16.7 µM]
C[C@@H]1CN([C@H](C)CO)C(=O)c2c(c3ccccc3n2C)-c2ccccc2CO[C@@H]1CN(C)C(=O)NC1CCCCC1,-61[16.7 µM]
O=C(C[C@H]1C[C@@H]2c3cc(NC(=O)c4cccnc4)ccc3O[C@@H]2[C@@H](CO)O1)NCC(F)(F)F,-8[16.7 µM]
C[C@@H]1CN([C@H](C)CO)C(=O)c2cc(C#C[C@@H](C)O)cnc2O[C@@H]1CN(C)C(=O)Cc1ccncc1,10[16.7 µM]
